YopH inh = inhibitors of Yersinia enterocolitica YopH tyrosine phosphatase; fluorescence Ex485/Em525; inhibition, %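 (about 10 µM by stock and volumes)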; hit rate 0.16% among 140,000;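 active means inhibition of 50% or more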;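 further: controls were vehicle for no effect and minimum signal wells for full effect; inactives centre near -20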
Arbovirus anti = blocks arbovirus infection; arbovirus infection cell-based antiviral screen; inhibition, % at 10 µM; hit rate 0.37% among 200,000; AID 1251;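 active means inhibition from about 30%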;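 further: bluetongue infection of BSR cells; cell survival read as ATP light after 72 h; 0% = infected wells without compound and 100% = uninfected wells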
RecA splice inh = inhibitors of M. tuberculosis RecA intein splicing | cell-free RecA intein splicing, fluorescence | AID 2221 | P9WHJ3 | inhibition, %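 (about 9 µM by stock and volumes)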 | hit rate 0.75% among 290,000; in the data active means inhibition above about 30%; inconclusive means no clear call, values can overlap the other calls;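 further: 0% = vehicle wells and 100% = reference inhibitor control wells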
Target sequence (P9WHJ3 whole entry, looked up, canonical isoform): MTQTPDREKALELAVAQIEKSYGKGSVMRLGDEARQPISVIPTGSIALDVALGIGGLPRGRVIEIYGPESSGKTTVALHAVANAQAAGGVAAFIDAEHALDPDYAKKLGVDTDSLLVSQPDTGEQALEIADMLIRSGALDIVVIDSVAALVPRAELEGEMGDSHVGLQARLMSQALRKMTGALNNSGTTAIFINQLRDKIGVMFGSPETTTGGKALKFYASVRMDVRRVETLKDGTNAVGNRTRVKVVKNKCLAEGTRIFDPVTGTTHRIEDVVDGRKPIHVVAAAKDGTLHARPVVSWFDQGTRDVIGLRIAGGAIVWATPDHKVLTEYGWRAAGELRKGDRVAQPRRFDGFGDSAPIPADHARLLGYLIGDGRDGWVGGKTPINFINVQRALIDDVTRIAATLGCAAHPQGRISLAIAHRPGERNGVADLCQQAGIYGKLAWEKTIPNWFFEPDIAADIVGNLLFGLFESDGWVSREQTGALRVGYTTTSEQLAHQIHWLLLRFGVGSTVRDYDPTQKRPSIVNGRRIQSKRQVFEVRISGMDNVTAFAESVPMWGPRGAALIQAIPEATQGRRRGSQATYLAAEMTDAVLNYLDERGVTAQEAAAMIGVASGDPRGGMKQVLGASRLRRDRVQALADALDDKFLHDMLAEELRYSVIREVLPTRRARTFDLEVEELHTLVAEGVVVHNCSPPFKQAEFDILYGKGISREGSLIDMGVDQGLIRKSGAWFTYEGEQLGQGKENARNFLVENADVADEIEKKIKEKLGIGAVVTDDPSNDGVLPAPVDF
Mtb H37Rv = M. tuberculosis H37Rv growth inhibitors, H37Rv strain (AID 1626) | M. tuberculosis H37Rv growth inhibition; higher % means a stronger effect | inhibition, % at 10 µM, or IC50 in µM where a hit was titrated | hit rate 0.95% among 220,000;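 active means confirmed in a dose series; inconclusive means inhibition above 80% but not taken into the dose series; inactive means below 80% or under 30% at every dose of the series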;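 further: bacteria incubated seven days before Alamar blue readout; 0% = bacteria only wells and 100% = bacteria with antibiotic wells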
Mtb bLac sens = beta-lactam sensitization of Mtb H37Rv; hit rate 0.27% among 330,000; inhibition, % at 25 µM; AID 434955; M. tuberculosis H37Rv growth with meropenem, percent inhibition; hits of this screen are not shown here;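 active means about 74% or more and at least 40 points above the plate without the antibiotic, then above 30% in a dose series; inconclusive means first-round hits that could not be retested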;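 further: growth measured after seven days incubation then overnight dye step; 0% = bacteria only wells and 100% = bacteria with antibiotic; twin plates without the antibiotic show which effects depend on it; some results filed as inactive read as strong as hits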
Arbovirus anti repeat = recorded beside Arbovirus anti, whose call it bears; inhibition, %; measured here: 10K subset replicate screen; many hits read low in the repeat;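 first of two repeat runs on a subset; 0% = infected and 100% = uninfected wells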
* = called active by the depositor; ? = inconclusive; . = not tested or not shown.

A first look (four entries):
SMILES	YopH inh	Arbovirus anti	RecA splice inh	Mtb H37Rv	Mtb bLac sens	others
CCN(CC(=O)Nc1c(F)cccc1F)C(=O)c1cccnc1Sc1ccccc1	.	.	1.5	.	-12
CC(C)CC(=O)N1CCN(S(=O)(=O)c2ccc(F)cc2)CC1	27	8	2.5	-8%	6
Cc1cc(/C=C(\C#N)C(=O)NC2CCCCCC2)c(C)n1C	-16	7	-22	1%	10
CCCCOc1ccc(C2(C)NC(=O)N(C)C2=O)cc1 (stereo unspecified)	.	.	2.0	.	1

The list itself, from the first entry:
SMILES	YopH inh	Arbovirus anti	RecA splice inh	Mtb H37Rv	Mtb bLac sens	others
CCN(CC(=O)Nc1c(F)cccc1F)C(=O)c1cccnc1Sc1ccccc1	.	.	1.5	.	-12
CC(C)CC(=O)N1CCN(S(=O)(=O)c2ccc(F)cc2)CC1	27	8	2.5	-8%	6
Cc1cc(/C=C(\C#N)C(=O)NC2CCCCCC2)c(C)n1C	-16	7	-22	1%	10
CCCCOc1ccc(C2(C)NC(=O)N(C)C2=O)cc1 (stereo unspecified)	.	.	2.0	.	1
COc1ccc(-n2nc(C(C)=O)c(=O)[nH]c2=O)cc1	.	-1	-2.0	5%	-1
CN(C(=O)c1cccc(C#N)c1)c1nnc(C2CCCO2)s1 (stereo unspecified)	-40	1	-0.3	-5%	-5
CC(=O)NC(CC(C)C)C(=O)NC(CO)C(=O)NC(CCC(=O)O)C(=O)NC(C)C(=O)NC(CC(C)C)C(N)=O (stereo unspecified)	.	.	-2.8	-9%	-5
Cc1c(NC(=O)c2ccc(Cl)c(S(=O)(=O)N3CCCCC3)c2)c(=O)n(-c2ccccc2)n1C	.	.	-4.6	.	-3
COc1ccccc1OCC(=O)N1CCN(c2ccccc2OC)CC1	.	-2	2.8	-9%	5	Arbovirus anti repeat=1
CCOC(=O)c1ccc(NC(=O)c2cccnc2)cc1	.	.	-0.8	.	49
CC(OC(=O)Cc1ccc(Cl)cc1)C(=O)NCCC1=CCCCC1 (stereo unspecified)	-33	8	-0.5	3%	5
O=C(CN1C(=O)c2ccccc2C1=O)N1CCN(S(=O)(=O)c2ccccc2)CC1	.	.	2.0	.	-2
Cn1ncc2c(Nc3ccc(-c4ccccc4)cc3)ncnc21	-18	9	16	19%	9
O=C(Nc1nnc(-c2ccco2)o1)c1ccc([N+](=O)[O-])s1	.	-4	-11	6µM*	95
COc1cccc2sc(N3CCN(C(=O)c4ccc([N+](=O)[O-])o4)CC3)nc12	.	.	-0.2	.	100
Cc1[nH]c2ccccc2c1C(=O)C(=O)NCc1ccco1	.	-5	1.5	3%	1
O=C(CSc1ncccn1)NCc1ccc(F)cc1	-23	2	0.0	2%	-5
Cc1ccc(-c2nnc(NC(=O)c3ccc([N+](=O)[O-])o3)o2)c(C)c1	.	.	-1.8	.	99
Cn1c(SCCc2ccc([N+](=O)[O-])cc2)nccc1=O	.	.	3.1	.	3
Cc1cccc(CS(=O)(=O)c2ncc(CO)n2C)c1	.	.	6.0	.	5
O=c1[nH]c(N/N=C\c2ccc3c(c2)OCO3)nc2ccccc12	.	-8	-1.1	-2%	40
Cc1ccc(-n2nc3c(c2NC(=O)C2CC2)CS(=O)(=O)C3)cc1C	.	.	-1.8	.	-3
CC(=O)C(Cc1ccccc1)NC(=O)COC(=O)CCN1C(=O)C2CC=CCC2C1=O (stereo unspecified)	.	.	12	.	-5
O=S(=O)(NCCc1cn2ccccc2n1)c1ccc2c(c1)CCCC2	-38	1	-0.2	-1%	2
Cc1c(C(=O)N2CCN(c3ccc(F)cc3)CC2)oc2c1C(=O)CCC2	.	.	2.1	.	?
CCc1ccccc1OCCCCCNCCO	3	-6	2.6	-9%	-8
COc1ccc(C(=O)NCCc2nnc(SCC(=O)Nc3ccc(Br)cc3)n2C)cc1	-34	-5	.	-5%	-5
Cc1c(C(=O)NC(C)c2ccc(-n3ccnc3)cc2)cccc1[N+](=O)[O-] (stereo unspecified)	.	.	-0.2	.	-4
Fc1ccccc1CCNCc1cccc2ccccc12	-29	4	-0.2	4%	-1
CC(=NCc1ccco1)c1c(O)n(-c2ccccc2)c(=O)[nH]c1=O	-36	-2	-0.8	4%	-7
Cc1[nH]nc2c1C(c1ccccn1)N(c1ccc(Br)cc1)C2=O (stereo unspecified)	-45	-6	-0.2	-3%	8
O=C(CN1CCCCCCC1)Nc1cc(Cl)cc(Cl)c1	.	-6	1.6	8%	1
c1cnc(N2CCN(c3ccc4ccccc4n3)CC2)nc1	.	.	2.8	.	48
Cc1cc(C)c2c(CN3CCN(C/C=C/c4ccccc4)CC3)cc(=O)oc2c1	-26	-14	2.5	6%	100
Cc1ccc(NC(=O)Cc2ccc(Cl)cc2)nc1	.	.	0.5	.	66
Cc1cccc(-c2noc(CN(C(=O)c3c(-c4ccccc4Cl)noc3C)C(C)C)n2)c1	-39	6	.	2%	10	Arbovirus anti repeat=-4
CCN1CCN(Cc2cc(Br)ccc2O)CC1	2	7	0.2	0%	-5
CCN(CCCNC(=O)Cn1ncc2c([nH]c3ccc(C)cc32)c1=O)c1cccc(C)c1	.	.	-1.6	.	-1
COC(=O)c1nc(N)sc1-c1ccccc1	23	0	.	-1%	0
CC(=O)Nc1ccc(S(=O)(=O)N2CCC(C(=O)NCCC(=O)Nc3nccs3)CC2)cc1	.	.	-2.7	.	-1
Cc1cc(NCCOCCO)n2ncc(-c3ccc(Cl)cc3)c2n1	-10	-14	2.0	9%	-4
Cc1ncoc1C(=O)N1CCCC(C(=O)c2cccc(C(F)(F)F)c2)C1 (stereo unspecified)	.	1	2.5	-1%	-6
O=C(CN1CCCCC1)Nc1ccccc1NC(=O)CN1CCCCC1	-6	8	0.6	-4%	-2
CCOC(=O)N1CCC(N2CCCC(CO)(Cc3ccccc3C)C2)CC1 (stereo unspecified)	.	-1	-5.4	7%	-1
CC1(C)N=C(SCC(=O)Nc2ccccc2)C(c2ccc(Cl)cc2)=N1	12	-7	8.9	2%	-3
Cc1ccc(NS(=O)(=O)c2ccc(-c3ccc(=O)[nH]n3)o2)c(C)c1	.	.	-1.7	.	3
CCOc1cc(CO)cc(Br)c1OCC(N)=O	.	7	1.7	2%	-12
S=c1[nH]nc(-c2ccc(Cl)cc2)n1Cc1ccccc1	-9	-1	3.6	-2%	5
CC(Oc1cc2oc(=O)c3c(c2cc1Cl)CCC3)C(=O)NCc1ccccn1 (stereo unspecified)	.	.	-3.4	.	11
Cn1c(SCC(=O)Nc2cc(C(C)(C)C)nn2-c2ccccc2)nc2ccccc21	-15	5	8.7	2%	-3
Cc1ccc(-c2cn(-c3ccccc3)c(SCC(N)=O)n2)cc1C	-16	10	4.4	.	9
O=C(O)C1CSC(c2ccc3c(c2)OCO3)N1 (stereo unspecified)	.	.	-0.3	-2%	-1
CC(C)(C)NC(=O)CN(C(=O)C1CSC(=O)C1)c1ccc2c(c1)OCCO2 (stereo unspecified)	17	2	2.6	-2%	-4
CCN(CC)CCSc1nc2ccccc2n1Cc1ccccc1	.	.	0.3	.	5
CC(CC(=O)N(CCC1=CCCCC1)c1c(N)n(Cc2ccccc2)c(=O)[nH]c1=O)c1ccccc1 (stereo unspecified)	.	.	0.0	.	2
CC(=O)Nc1ccc(S(=O)(=O)Oc2ccc(/C=N/NC(=O)c3ccc(Cl)cc3)cc2)cc1	-14	9	1.6	-8%	-3
O=C(Nc1cc(Cl)ccc1N1CCOCC1)c1cnccn1	-25	6	-0.6	2%	13
Cc1ccc(/C=N/NC(=O)c2ccccn2)s1	-23	-11	-0.3	-5%	96
CC(C)NC(=O)c1ccc(N(Cc2ccc(Cl)cc2)S(C)(=O)=O)cc1	.	.	-0.2	.	6
CSC1=NCCN1S(=O)(=O)c1ccccc1	.	-6	0.0	5%	-5

Next part.
SMILES	YopH inh	Arbovirus anti	RecA splice inh	Mtb H37Rv	Mtb bLac sens	others
CC(CSc1nnnn1-c1ccccc1)Cn1c(N2CCCC2)nc2c1c(=O)[nH]c(=O)n2C (stereo unspecified)	20	3	-0.6	-3%	2
Nc1c(C(=O)OCC2CCCO2)c2nc3ccccc3nc2n1C1CCCCC1 (stereo unspecified)	2	2	23	10%	2
O=C(O)CCCCC1CCSS1 (stereo unspecified)	.	-20	-1.2	-2%	-5
CN(C)S(=O)(=O)N1CCC(CO)(CCc2ccccc2)CC1	.	1	-0.5	-4%	-5
CN(C)c1ccc2nc3c(=O)[nH]c(=O)nc-3n(CC(O)C(O)C(O)CO)c2c1 (stereo unspecified)	.	.	4.7	.	13
O=C(NC1CCCC1)C1CCCN1S(=O)(=O)c1cccc2cccnc12 (stereo unspecified)	-38	2	.	-6%	-10
Cc1ccc2nc(N3CCN(C(=O)CCCC(=O)O)CC3)nc(-c3ccccc3)c2c1	.	.	-278	.	1
CN(C)c1cccc(C(=O)N/N=C/c2ccsc2)c1	-24	-2	-2.2	-6%	5
Nn1c(SCC(=O)Nc2ccc(F)cc2F)nnc1-c1cccnc1	12	-1	-0.5	-1%	-4
CC/C(=N\NC(N)=O)c1c(O)[nH]c(=O)[nH]c1=O	.	.	1.0	.	-9
Cc1c(C(=O)OCC2CCCO2)[nH]c2c1C(=O)CC(c1ccc(N(C)C)cc1)C2 (stereo unspecified)	-10	-5	-4.1	?	13	Arbovirus anti repeat=1
N=C1c2ccccc2CN1NC(=O)c1ccc(Br)cc1	-12	4	-2.6	0%	7

Quoted at random: 4 records from the list.
SMILES	YopH inh	Arbovirus anti	RecA splice inh	Mtb H37Rv	Mtb bLac sens	others
CC(CSc1nnnn1-c1ccccc1)Cn1c(N2CCCC2)nc2c1c(=O)[nH]c(=O)n2C (stereo unspecified)	20	3	-0.6	-3%	2
Nn1c(SCC(=O)Nc2ccc(F)cc2F)nnc1-c1cccnc1	12	-1	-0.5	-1%	-4
Cc1ccc2nc(N3CCN(C(=O)CCCC(=O)O)CC3)nc(-c3ccccc3)c2c1	.	.	-278	.	1
N=C1c2ccccc2CN1NC(=O)c1ccc(Br)cc1	-12	4	-2.6	0%	7

Further compounds
SMILES	YopH inh	Arbovirus anti	RecA splice inh	Mtb H37Rv	Mtb bLac sens	others
CCCCCn1c(CN2CC(C)OC(C)C2)nc2c1c(=O)n(C)c(=O)n2C (stereo unspecified)	-10	6	5.0	0%	-5	Arbovirus anti repeat=-2
O=S1(=O)CCN2C=C(Cl)C=C(Cl)C2=N1	.	3	-0.9	-2%	-4
COc1ccc(C(=O)CN2C(=O)NC(C)(c3ccccc3)C2=O)cc1OC (stereo unspecified)	-8	7	-0.4	-6%	-3
CCn1cc(CNC(=O)c2c(-c3c(Cl)cccc3Cl)noc2C)c(C)n1	-17	14	0.5	-3%	-2
CCOc1ccc(N(CC(=O)NCc2cccnc2)S(=O)(=O)c2ccc(F)cc2)cc1	.	.	-2.4	.	-16
Cn1c(=O)c(=O)n(C)c2cc(S(=O)(=O)NCCOc3ccccc3Cl)ccc21	.	-3	0.5	-5%	0
C[C@H](C(=O)NCc1ccccc1)C(=O)c1ccccc1	.	.	-1.8	.	-12
O=C1CC(c2ccccc2)N1c1ccccc1 (stereo unspecified)	-30	-5	1.5	-3%	-5
C=CCOC(=O)Nc1snnc1C	-9	5	-1.3	-17%	-1
CC1CCCN(C(=O)c2ccc(NC(=O)CC3SC(N4CCCC4)=NC3=O)cc2)C1 (stereo unspecified)	.	.	2.1	.	-1
COc1ccc(OCC(=O)Nc2ccccc2C(=O)N2CCCC2)cc1	-8	-3	-2.0	1%	4
CCC(C)Cn1c(O)cc2nn(-c3nc4ccccc4s3)c(=O)c-2c1C (stereo unspecified)	.	.	1.1	-1%	1
O=C(Cc1cccs1)N/N=C\c1ccc([N+](=O)[O-])s1	.	-17	4.3	?	99
Cn1[nH]c(=O)c2ccccc2c1=O	-46	5	-1.5	3%	0
O=C(NCC1(c2ccccc2)CCCC1)C1(c2ccccc2)CCCC1	-19	-19	30*	4%	32
C=CC[C@H]1Cc2c(cccc2[N+](=O)[O-])[C@H](CC=C)N1	.	3	5.3	0%	2
COc1ccc(N2CCN(C(=O)Cn3nnc(-c4cccs4)n3)CC2)cc1	-6	-9	-4.0	15%	-3
Cc1nnc(SCC(=O)N(C)C2CCCCC2)s1	.	-8	1.6	1%	0
CCN1CCc2c(sc(NC(=O)C3COc4ccccc4O3)c2C(N)=O)C1 (stereo unspecified)	.	.	-5.7	.	-8
CCC(CC)c1ncc[nH]1	.	.	-2.1	-1%	-3
CN1CCC(=NNC(=O)C(=O)NC2CCCC2)CC1	-29	6	-0.3	.	-8
Cn1ccnc1SCC(=O)Nc1ccc2nc(SCC(=O)NC3CC3)sc2c1	-8	-2	3.0	3%	62
C=CCn1c(SC)nnc1-c1cccc([N+](=O)[O-])c1	-20	-4	-1.5	1%	-1

Source: PubChem BioAssay (several laboratories)

Some of the compounds tested; the hit share may differ from the screen's.
